VDR inh: inhibitors of human vitamin D receptor; VDR-SRC2-3 peptide fluorescence polarization, 2 h; Potency, µM, for inactives: max response, negative = inhibition, usual class: inhibitors; P11473; 400,000 compounds, 0.93% hits; active means well fitted inhibition curve with a large enough effect; inconclusive means small, poorly fitted or top-dose-only effect, or another doubt; inactive means no such curve, though single readings can be large or run the other way; further: series mostly up to about 120 µM
Target sequence (P11473 whole entry, looked up): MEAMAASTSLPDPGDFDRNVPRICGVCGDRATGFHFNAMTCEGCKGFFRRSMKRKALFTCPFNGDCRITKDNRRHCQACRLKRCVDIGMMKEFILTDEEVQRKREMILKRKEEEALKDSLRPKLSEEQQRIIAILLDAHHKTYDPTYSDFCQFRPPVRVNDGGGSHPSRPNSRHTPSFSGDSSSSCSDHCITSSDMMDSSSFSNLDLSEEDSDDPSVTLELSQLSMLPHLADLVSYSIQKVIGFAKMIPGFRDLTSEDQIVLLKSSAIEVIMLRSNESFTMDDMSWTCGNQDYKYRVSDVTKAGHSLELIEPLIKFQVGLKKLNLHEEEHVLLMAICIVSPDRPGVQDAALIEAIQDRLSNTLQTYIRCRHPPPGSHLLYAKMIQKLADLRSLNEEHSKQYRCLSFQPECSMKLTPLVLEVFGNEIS
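VDR–SRC2-3 interaction, FP format. Cmpds 23 nl via pintool, brief spin, 2 h ambient incubation.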
Numbers without * were called inactive; ? = inconclusive; & = joins results of further samples; [ ] = another dose, or the depositor's remark. On the % scale 0 is the no-effect control and ±100 the full control effect; potency means the concentration at half of the fitted maximal effect. Some of the compounds tested, so the mix of outcomes need not match the whole.

No.	Structure	VDR inh
1	CCOC(=O)Cc1csc(NC(=O)COc2ccc3c(C)cc(=O)oc3c2)n1	-7.7%
2	Cc1nnc(NC(=O)c2ccc3c(c2)OCO3)s1	11.5%
3	CCOc1ccc(/C=N/Nc2ccccn2)cc1	3.2%
4	Cc1ccnc(NC(=O)CCc2c(C)nc3ncnn3c2C)c1	-3.7%
5	CC1(C)CC(=O)C(CC(=O)N2CCC(Cc3ccccc3)CC2)C(=O)C1	13.9%
6	Cc1ccc(CN2CCN(Cc3cccc4c3OCO4)CC2CCO)cc1 (centres undefined)	-14.6%
7	Cc1ccc(NC(=O)c2c(NC(=O)c3ccccc3)sc3c2CCC3)cc1	?
8	Cc1cccc(OCc2nnc(SCC(=O)Nc3sc(C)c(C)c3C#N)n2C)c1	12.2%
9	COc1ccc(CN(C(=O)c2oc3ccccc3c2C)C2CCS(=O)(=O)C2)cc1 (centres undefined)	1.6%
10	Cc1ccc(C)c(OCCC(=O)NCCc2ccc(Cl)cc2)c1	-5.6%
11	Cc1nc(C)c(-c2ccc(SCC(=O)Nc3cccc(Cl)c3)nn2)s1	-2.6%
12	CCCN1CCc2c(sc(NC(=O)Cc3ccc(F)cc3)c2C(N)=O)C1	-16.6%
13	CC(=O)c1ccc(Nc2cc(C)nc3ncnn23)cc1	-11.0%
14	O=C(c1ccncc1)N1CCN(S(=O)(=O)c2ccc3ccccc3c2)CC1	12.4%
15	Cc1ccc(S(=O)(=O)N2CCN(C(=O)CSc3ccccn3)CC2)c(C)c1	?
16	CCc1cccc(CC)c1NC(=O)Cn1c(-c2ccc(F)cc2)noc1=O	-3.7%
17	Cc1cccc(OCC(=O)Nc2ccc(S(=O)(=O)N(Cc3ccccc3)c3ccccc3)cc2)c1	-1.3%
18	CN(C)c1cccc(C(=O)NNC(=O)C23CC4CC(CC(C4)C2)C3)c1	8.5%
19	C/C(=N\NC(=O)c1nonc1N)c1cccs1	4.1%
20	O=C(NCc1cccs1)C1CC(O)CN1C(=O)Nc1ccccc1 (centres undefined)	14.4%
21	Cc1cc(C)n(CC(=O)NC2CCCc3c2cnn3-c2ccc(C)c(C)c2)n1 (centres undefined)	8.7%
22	CC(C)COc1cccc(C(=O)Nc2ccc(CN3CCOCC3)cc2)c1	-8.5%
23	COc1cc(C)c(N)cc1C(C)C	-12.7%
24	C[C@H](CO)N1C[C@H](C)[C@@H](CN(C)C(=O)NC2CCCCC2)Oc2c(NC(=O)Nc3ccccc3)cccc2C1=O	7.5%
25	COc1cc(NC(=O)c2ccc(C)cc2)c(OC)cc1NC(=O)CN1CCCCC1	-11.0%
26	COc1ccc(N2CC(C(=O)OCC(=O)Nc3ccccc3C)CC2=O)cc1 (centres undefined)	-7.1%
27	CCc1ccc(OCCn2c(CCNC(=O)C3CCCCC3)nc3ccccc32)cc1	-18.4%
28	CCN1CCOC(=O)C1CC(=O)Nc1ccc(Br)cc1 (centres undefined)	?
29	CCCCCCSc1nsc(NC(=O)CCC)n1	8.4%
30	O=C(NCCCN1CCOCC1)C(=O)N/N=C/c1c2ccccc2cc2ccccc12	-8.3%
31	COc1cc(/C=C2\SC(=S)N(Nc3ccccc3)C2=O)cc(OC)c1OC	-19.8%
32	O=C(OCCSCCOC(=O)C1CC=CCC1)C1CC=CCC1 (centres undefined)	8.1%
33	Fc1ccc(Cn2nnnc2CN2CCc3ccccc3C2)cc1	-6.8%
34	O=S(=O)(c1ccccc1)c1nnn2c1nc(NCc1ccccc1)c1cc(Cl)ccc12	-2.7%
35	CCOc1cccc(C(=O)Nc2ccc3oc(-c4ccc(C(C)(C)C)cc4)nc3c2)c1	-13.4%
36	Cn1c(CCN2CCN(c3ccccn3)CC2)nc2cc(NC(=O)COc3ccc(Cl)cc3)ccc21	-16.7%
37	CCOc1ccc(CNC(=O)c2ccc(Sc3ccc(Cl)cc3)c(NC(C)=O)c2)cc1	-2.9%&-10.5%
38	CCOC(=O)N1CCN(C(=O)CN(C)S(=O)(=O)c2ccc(F)cc2)CC1	-5.0%
39	COC(=O)c1scc(-c2ccccc2)c1S(=O)(=O)Nc1cccc(C)c1C	20.9%
40	CCN(CC)C(=O)c1ccc(O)c(OC)c1	1.3%&3.3%&-5.2%&-2.1%
41	CCNS(=O)(=O)c1ccc(CCC(=O)N2CCN(c3cccc(Cl)c3)CC2)cc1	-2.2%
42	COc1ccc(CN(Cc2ccco2)C(=O)COc2ccccc2Cl)cc1	10.0%
43	CC(=O)N(c1ccc2oc(=O)sc2c1)S(=O)(=O)c1cccs1	89.1µM*
44	COc1cc(C(=O)Nc2c(C)cc(C)cc2C)c(Br)c(OC)c1OC	-14.2%
45	N#Cc1ccccc1OCC(=O)OCC(=O)NC1CCCC1	-11.6%
46	CCc1ccccc1Nc1cc(C(=O)NCCc2ccccc2)c2ccccc2n1	-14.8%
47	O=C(Nc1sc2c(c1C(=O)NCc1ccccc1)CCCC2)c1cc(=O)c2cc(Cl)ccc2o1	-3.9%
48	COc1ccc(Cl)cc1N(C)C(=O)CCNC(=O)Cn1cnc2ccccc2c1=O	-16.0%
49	O=C(NCc1ccccc1)C12CC3CC(CC(C3)C1)C2	-17.2%
50	Cc1c(OCC(=O)N[C@@H](Cc2c[nH]c3ccccc23)C(=O)O)ccc2c1oc(=O)c1ccccc12	-15.8%

(more compounds)
No.	Structure	VDR inh
51	CCCCC1C(=O)NN(c2ccccc2)C1=O (centres undefined)	-0.6%
52	CC1(C)Oc2ccc3ccc(=O)oc3c2/C(=C/NC2CCCCC2)C1=O	11.8%
53	COc1cc(OC)cc(C(=O)NNC(=O)CCC(=O)c2cc(C)sc2C)c1	19.2%
54	COc1ccc(-n2nc(C(=O)Nc3cccc(Cl)c3)c3c4ccccc4n(C)c3c2=O)cc1Cl	-19.5%
55	CC(=O)Oc1ccc(CCC(C)OC(C)=O)cc1 (centres undefined)	0.7%
56	COc1ccc(C2C(C#N)=C(N)Oc3cc(O)ccc32)cc1 (centres undefined)	-0.2%
57	COc1ccc(CCNC(=O)C2CCCN(c3nc4ccccc4s3)C2)cc1OC (centres undefined)	-2.8%
58	CC1(C)OC(=O)C(=CNn2cnc3ccccc3c2=O)C(=O)O1	-7.5%
59	CS(=O)(=O)c1ccc(NCCN2CCOCC2)c([N+](=O)[O-])c1	-6.8%
60	COC(=O)[C@@H](Cc1ccccc1)NC(=O)NCCc1ccc(OC)c(OC)c1	-9.4%
61	CC(=O)Oc1ccc2occ(C(=O)c3cccs3)c2c1	-7.7%
62	COc1ccc(Oc2ccc(C(F)(F)F)cc2NC(=O)c2ccc(C)cc2)cc1	-7.3%
63	CCOc1ccc(CCNC(=O)Cn2nc(C)n3cccc3c2=O)cc1OCC	-7.2%
64	CCC(C)NC(=O)Cn1c(=O)n(-c2ccc(C)c(C)c2)c(=O)c2c3c(sc21)CCCCC3 (centres undefined)	-24.8%
65	COc1cc2c(cc1NC(=O)C(c1ccccc1)c1ccccc1)CCCC2	19.8%
66	COc1ccc(OC(=O)N2CCOCC2)cc1	-5.2%
67	NC(=O)c1ccc(/C(N)=N/S(=O)(=O)c2cc(C(F)(F)F)cc(C(F)(F)F)c2)cc1	-9.6%
68	CCC(=O)C1=C(c2ccc(F)cc2)N(C(=O)CC)n2cnnc2S1	-1.4%
69	C/C=C(/C)C(=O)Nc1cccc(C2=NOC3(C2)C[C@@H](C(N)=O)N(C(=O)c2ccc(OC)cc2)C3)c1 (some centres undefined)	-9.7%
70	COc1ccccc1N=c1oc2c(OC)cccc2cc1C(=O)NCc1ccco1	-4.5%
71	CC(C)(C)NC(=O)C(=O)NC(=O)c1c(F)cccc1Cl	9.1%
72	Cc1ccc2c(c1)C(=O)OC(C(=O)Nc1ncc(Cc3ccc(C(C)C)cc3)s1)C2 (centres undefined)	3.0%
73	COc1ccc(-c2cc(C)no2)cc1S(=O)(=O)N1CCN(c2cccc(C)c2)C(C)C1 (centres undefined)	3.8%&10.3%
74	CC(NC(=S)NC1CCCCC1)c1ccccc1 (centres undefined)	14.1%
75	CC(C)c1ccc(NC(=O)Cn2ncn3c(cc4ccccc43)c2=O)cc1	-0.2%

The closing 5 records of the section before lead into the next:
No.	Structure	VDR inh
71	CC(C)(C)NC(=O)C(=O)NC(=O)c1c(F)cccc1Cl	9.1%
72	Cc1ccc2c(c1)C(=O)OC(C(=O)Nc1ncc(Cc3ccc(C(C)C)cc3)s1)C2 (centres undefined)	3.0%
73	COc1ccc(-c2cc(C)no2)cc1S(=O)(=O)N1CCN(c2cccc(C)c2)C(C)C1 (centres undefined)	3.8%&10.3%
74	CC(NC(=S)NC1CCCCC1)c1ccccc1 (centres undefined)	14.1%
75	CC(C)c1ccc(NC(=O)Cn2ncn3c(cc4ccccc43)c2=O)cc1	-0.2%
76	O=S(=O)(c1ccc2ccccc2c1)N1CCN=C1SCc1cccnc1	6.9%
77	O=C1C2C3C=CC(C3)C2C(=O)N1CCN1CCN(Cc2ccc([N+](=O)[O-])cc2)CC1 (centres undefined)	?
78	CC1([N+](=O)[O-])COC2(CCCCC2)OC1	-8.8%
79	OCC[C@H]1C[C@@H](O)[C@H](O)[C@]2(CCCc3ccccc3O2)O1	2.8%
80	CCOC(=O)c1[nH]c(C)c(C(=O)NC)c1C	-8.9%
81	CC1=CC(C)(C)NC(=S)N1c1ccc2ccccc2c1	4.1%&-7.1%
82	CCCOc1ccc(CSC(CC(=O)O)C(=O)O)cc1 (centres undefined)	2.1%
83	O=C(Cc1ccc(NC2=NC3CS(=O)(=O)CC3S2)cc1)NCCc1ccccc1 (centres undefined)	1.1%
84	COCCCNC(=O)CN1C(=O)/C(=C/c2ccccc2)Sc2ccccc21	-2.7%
85	COc1ccc(NC(=O)CSc2nc3ccccc3nc2N2CCCCC2)cc1	-1.5%&8.5%
86	CCCN1C2=C(C(=O)CCC2)C(c2ccc(O)c(Br)c2)C2=C1CCCC2=O	15.8%
87	CC(=O)c1ccc(N/N=C2/CCCNC2=O)cc1	17.1%
88	N#Cc1cccc(NC(=O)c2cncn2-c2ccccc2)c1	-2.9%
89	CCCc1nc(SCC(=O)N2CCC(Cc3ccccc3)CC2)c2c(=O)n(C)c(=O)n(C)c2n1	-6.1%
90	O=C(CC1SC(N2CCCCC2)=NC1=O)Nc1ccc(C(=O)O)cc1 (centres undefined)	-14.0%
91	O=C(NCc1ccccc1Br)c1cccc2c1C(=O)c1ccc(-c3ccc(OC(F)(F)F)cc3)cc1S2(=O)=O	2.1%
92	CC1(C(=O)N2CCN(Cc3ccccc3Cl)CC2)CC1(Cl)Cl (centres undefined)	-27.9%
93	CC1=CC(C)(C)N=C(NC#N)N1	1.6%
94	Clc1ccccc1Nc1nnc(-c2ccncc2)s1	-13.0%
95	O=C(Cc1ccccc1Cl)Nc1nc2ccccc2[nH]1	4.1%
96	COc1ccccc1CN1CC[C@@]2(CCCN(C(C)=O)C2)C1	3.1%
97	COc1ccc(CC(=O)OCc2cc3ccccc3[nH]c2=O)cc1	8.1%
98	Cc1ccc(CN2C(=O)c3ccccc3Sc3ccc(C(=O)NCCCN4CCOCC4)cc32)cc1	-11.4%&7.7%
99	COC(=O)CCC(=O)N1CCCC(CO)(Cc2ccccc2C)C1 (centres undefined)	-7.1%
100	CN(C)CCCNC(=O)c1cc(C(=O)c2cccc(Cl)c2Cl)c[nH]1	18.1%
101	O=C(CSc1nnc(NC(=O)c2ccccc2F)s1)Nc1ccccc1F	-15.1%
102	O=C(N/N=C/c1ccc[nH]1)c1ccccc1OCc1ccc(F)cc1	-17.7%
103	CCOC(=O)c1[nH]c2ccc(OC)cc2c1NC(=S)N1CCN(c2ccccc2OC)CC1	-12.3%
104	Cc1nn(-c2ccccc2)c(=S)c2ccccc12	23.7%
105	Cc1cccc(CC(=O)NCCN2CCOCC2)c1	-7.9%
106	COc1ccc(NC(=O)CSc2nnc(C3CCCCC3)o2)c(OC)c1	1.7%
107	CC(C)(O)P(C)(=O)c1ccccc1 (centres undefined)	5.9%
108	COC(=O)CC1C(=O)NCCN1C(=O)c1cc(OC)c(OC)cc1OC (centres undefined)	-11.3%
109	CC1CCN(S(=O)(=O)c2ccc3c(c2)N(CC(=O)NCc2ccccc2)C(=O)CO3)CC1	10.4%
110	COCCNS(=O)(=O)c1ccc2c3c(cccc13)C(=O)N2C	-8.5%
111	CC1=CC2=NC(=O)/C(=C\c3cccn3CCOc3cc(C)cc(C)c3)C(=N)N2O1	1.2%
112	Cc1cc2oc(=O)cc(CN3CCN(Cc4ccccc4)CC3)c2cc1C	4.1%
113	NC(=O)CC(NC(=O)Cc1ccc(Br)cc1)c1ccc(NC2CCCCCCC2)c([N+](=O)[O-])c1 (centres undefined)	-7.7%
114	Cc1c(N=C2C(=O)Nc3ccccc32)c(=O)n(-c2ccccc2)n1C	8.1%
115	Cn1cc(Cl)c(/C(N)=N/OC(=O)c2ccccc2C(F)(F)F)n1	-14.4%
116	CC(OCC(O)CN1CCCCC1CCO)c1ccc(Cl)cc1 (centres undefined)	12.9%
117	Cn1c(Cn2c(=O)sc3ccccc32)nnc1SCc1ccc(F)cc1	-0.9%
118	CCOc1ccccc1N(CC(=O)N1CCc2ccccc2C1)S(C)(=O)=O	35.7%[activator]
119	COc1ccccc1CNC(=O)CN1C(=O)COc2ccc(S(=O)(=O)N3CCC(C)CC3)cc21	7.3%
120	Cc1cc(F)ccc1S(=O)(=O)Nc1ccccc1C(=O)N1CCCC1	6.0%
121	N/C(Cc1cccs1)=N\OC(=O)COc1ccccc1Cl	-1.5%
122	CCc1nc2ccc(C(=O)NCCc3ccc(OC)cc3OC)cc2nc1CC	-8.0%
123	CC(OC(=O)c1cccn1C)C(=O)Nc1ccc2c(c1)OCO2 (centres undefined)	-2.3%
124	Cc1ccc(-c2nc(CS(=O)CC(=O)NCCN(CC(C)C)CC(C)C)c(C)o2)cc1 (centres undefined)	-9.5%

Screens (PubChem)
